PINK1 modulator – PINK1 expression modulation; Potency, µM (titrated, usually from 76.6 µM), without a hit: top-dose activation (PINK1 increase), most hits filed as activators; PINK1 immunofluorescence, high-content cytometry, 24 h; AID 624263; 410,000 tested, 0.2% active; active = well fitted activation curve with a large enough effect; inconclusive = small, poorly fitted or top-dose-only effect; inactive = flat fitted curve, though single readings scatter; cell line not stated here;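 also: potency is read from the fitted curve at half-maximal effect; % of control where 0% means no effect; nearly all actives have a fitted effect of over 65% in size; a mitochondrial uncoupler was the plate control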
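Compound titrations (5 concentrations, 24 h) on a stable cell line; DMSO and CCCP controls. Endpoint: fixed-cell PINK1 immunofluorescence with mitochondrial, cell and nuclear markers, scanned by microplate cytometer.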
ClpP mod – qHTS Assay for Activators of ClpP; ATP-dependent Clp protease proteolytic subunit (Bacillus subtilis (strain 168)), P80244; purified B. subtilis ClpP, FRET peptide cleavage, 20 min; Potency, µM (series often up to 57.5 µM), inactives show at the top dose activity change, negative = active; 340,000 tested, 1.9% active; active = well fitted falling curve with a large enough effect; inconclusive = small, poorly fitted or top-dose-only effect; inactive = no such curve, though single readings can be large or run the other way; also: potency is read from the fitted curve at half-maximal effect; the source files actives as falling curves though it sought activators and does not explain the sign; nearly all actives have a fitted effect of over 65% in size; many hits overshoot -100%
Target sequence (P80244 whole entry, looked up): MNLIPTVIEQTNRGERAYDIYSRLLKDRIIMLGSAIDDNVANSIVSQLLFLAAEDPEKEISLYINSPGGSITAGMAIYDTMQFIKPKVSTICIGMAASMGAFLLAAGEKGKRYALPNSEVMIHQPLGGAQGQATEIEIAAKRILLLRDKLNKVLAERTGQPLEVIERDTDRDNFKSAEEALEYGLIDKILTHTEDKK
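FRET quenching reversal measured ClpP activation: 10 microg/mL B. subtilis ClpP at pH 8 with the FRET-FV decapeptide, read at 430 nm after 320 nm excitation. The 20-min minus 0-min signal was scaled between DMSO/no-enzyme wells and ADEP (5.8 microM final).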
Menin MLL FP FL – inhibitors of human menin-MLL interaction, wild-type MLL peptide | 290,000 tested, under 10 active | FP activity change, % at 61.4 µM | AID 1766 | Fluorescence polarization, fluorescein-MLL peptide displacement from menin; inconclusive = falling polarisation curve, or a change in total fluorescence; inactive = total fluorescence flat and polarisation flat or rising; no compound was filed as active; the % refers to the polarisation; negative = inhibition;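 also: % of control where 0% means no effect; inhibitors lower the polarisation; unlabelled MLL peptide was the positive control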
Sfp PPTase inh – Sfp phosphopantetheinyl transferase inhibition; Q9F4F7; Biochemical Sfp PPTase activity, qHTS; Potency, µM, without a hit: max response, negative = inhibition, most hits filed as inhibitors; 310,000 tested, 3.5% active; AID 1490; active = well fitted inhibition curve with a large enough effect; inconclusive = small, poorly fitted or top-dose-only effect, or another doubt; inactive = no such curve, though single readings can be large or run the other way;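 also: the enzyme is Sfp with the accession as filed and its product quenches rhodamine fluorescence; potency is read from the fitted curve at half-maximal effect; 0% = enzyme reaction without inhibitor and -100% = no enzyme wells; top concentration of the series not given in the record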
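Buffer: 50 mM Hepes-Na pH 7.6, 10 mM MgCl2, 0.01% Nonidet P-40, 0.01% BSA. Enzyme 15 nM, pre-exposed to compound 15 min; substrates then added and fluorescence change tracked over 30 min.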
TRPML1 blocker – inhibitors of human TRPML1 channel. Q9GZU1. 390,000 tested, 0.02% active. AID 624415. TRPML1-inducible cells, Ca2+ dye fluorescence, FDSS; stronger effect = lower value; inhibition of EC80 agonist-evoked calcium signal. activity change, negative = inhibition, % (concentration not given with the values); in the data active means activity change below about -50%; inconclusive means about -30% to -50%; inactive means above about -30%;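 also: stimulus is agonist 54-4 at its EC80 concentration; % is scaled to controls: 0 for no effect and ±100 for the full control effect; compound concentration not given in the record; the text of the record puts the active cut at -80%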
Target sequence (Q9GZU1 whole entry, looked up): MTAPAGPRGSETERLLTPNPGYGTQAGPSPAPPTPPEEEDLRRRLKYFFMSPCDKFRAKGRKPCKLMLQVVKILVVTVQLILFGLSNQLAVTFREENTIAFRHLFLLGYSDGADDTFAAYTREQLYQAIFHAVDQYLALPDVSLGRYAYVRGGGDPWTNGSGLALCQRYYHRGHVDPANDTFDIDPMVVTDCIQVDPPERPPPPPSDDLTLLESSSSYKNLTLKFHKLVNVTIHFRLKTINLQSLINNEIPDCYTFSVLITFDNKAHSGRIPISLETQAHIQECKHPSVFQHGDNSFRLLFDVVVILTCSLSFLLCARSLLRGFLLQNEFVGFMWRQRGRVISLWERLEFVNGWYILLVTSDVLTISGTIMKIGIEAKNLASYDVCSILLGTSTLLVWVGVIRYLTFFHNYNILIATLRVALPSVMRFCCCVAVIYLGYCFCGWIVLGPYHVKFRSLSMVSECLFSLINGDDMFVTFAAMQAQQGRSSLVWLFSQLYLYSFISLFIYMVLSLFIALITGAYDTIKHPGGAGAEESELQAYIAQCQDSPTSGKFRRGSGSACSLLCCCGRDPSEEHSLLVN
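Calcium fluorescence in TRPML1-DL cells induced overnight with Tet: a 110 s read after compound pin addition, then a 110 s antagonist read after challenge with 54-4 at 4 uM final (EC80).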
TRPML1 agonist – activates the human TRPML1 channel. TRPML1-expressing cells, Ca2+ dye fluorescence, FDSS; host cell line not named in the record; reference of the full effect not given here. 410,000 tested, 0.12% active. activation, % (concentration not given with the values). Q9GZU1. AID 624414; in the data active = activation above about 50%; inconclusive = about 30% to 50%; inactive = below about 30%; also: 0% is about no effect; the text of the record puts the active cut at 80%
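Calcium fluorescence on an FDSS kinetic reader gave the read-out. Tet-induced TRPML1-DL cells were plated overnight, dye-loaded (Ca8 with quencher, 45-90 min, room temperature, dark), then read 110 s after compound addition, and again 110 s after 4uM final 54-4 (EC80).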
TRPV1 PAM – potentiators of human vanilloid receptor 1 (TRPV1); Q8NER1; TRPV1-expressing cells, Fluo-8 calcium influx, capsaicin EC20 potentiation; host cell line not named in the record; control for the full effect not named in the record; potentiation, % at 8.33 µM; 320,000 tested, 0.02% active; active means potentiation above 80%; inconclusive means 30% to 80%; inactive means below 30%; also: 0% is about no effect
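TRPV1-expressing cells were cultured overnight at 35.5C and loaded with Fluo-8 calcium dye for 40 to 90 min at room temperature. After a 10 s baseline, compound was added and calcium influx was read kinetically for 3 min (ex 480/em 520 nm).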
Starred values were filed as active, the others as inactive; ? = inconclusive; · = not tested or not shown; & = joins results of further samples; [ ] = another dose, or the depositor's remark.

nr	compound	ClpP mod	TRPML1 agonist	TRPML1 blocker	PINK1 modulator	TRPV1 PAM	Menin MLL FP FL	Sfp PPTase inh
1	CCn1cc(C2=NOC(C(=O)Nc3ccc4c(c3)OCO4)C2)c(C)n1 (configuration not stated)	-2.2%	-0.1	-9	5.1%[38.3 µM]	2	4.7	2%
2	OCCN1CCN(c2ncnc3c2ncn3[C@H]2CN(Cc3cccc(C(F)(F)F)c3)C[C@@H](CO)O2)CC1	0.3%	-0.2	·	0.2%	·	·	·
3	Oc1ccccc1C1C=C(c2ccc3c(c2)OCO3)NC(c2c(F)cccc2Cl)N1 (configuration not stated)	·	2.1	-21	1.8%	18	·	·
4	CCOc1ccccc1NC(=O)C1CCN(S(=O)(=O)c2ccc3c(c2)CC(C)N3C(C)=O)CC1 (configuration not stated)	-1.3%	0.2	4	0.6%	·	·	·
5	CC1=C(c2ccc(C)cc2)S(=O)(=O)N(Cc2ccc(C(=O)NCc3ccccc3F)cc2)C1=O	4.3%	1.4	24	1.6%	·	·	·
6	COC(=O)c1cc(C(=O)Nc2ccc(S(=O)(=O)NC(C)(C)C)cc2)cc([N+](=O)[O-])c1	-1.3%	-0.1	-5	6.1%	10	1.2	-8%
7	C=C(C)Cn1c2ccc(NC(=O)CCOCC)cc2c(=O)n1C	4.5%	-0.4	·	0.5%	·	·	·
8	CC(C)(C)c1ccc(-c2noc(CNC(=O)c3ccco3)n2)cc1	·	-0.5	9	0.6%	9	4.6	16%
9	C=CCn1c(COc2ccc(Cl)cc2)nnc1SCC(=O)N/N=C/c1cccc(O)c1	8.0%	0.6	-6	15%	5	2.5	5%
10	Cn1c(N)c(C(=O)COC(=O)Cc2ccsc2)c(=O)n(C)c1=O	-5.2%	-0.2	-5	-1.0%	3	8.0	-6%
11	CC(=O)N1CCOc2ccc(S(=O)(=O)N3CCC(C(=O)NCc4ccc(F)cc4)CC3)cc21	-0.4%	-0.1	2	0.1%	2	2.2	22%
12	NS(=O)(=O)c1cc(C(=O)OCC(=O)Nc2ccc3[nH]c(=O)[nH]c3c2)ccc1Cl	-0.9%	-0.6	2	-0.8%	-4	·	·
13	CCOc1ccccc1C1C(C(=O)Nc2ccccc2OC)=C(C)Nc2nnnn21 (configuration not stated)	-1.4%	-0.7	2	3.2%	-3	1.6	9%
14	COCCN(Cc1ccccc1)C(=O)c1ccc2c(=O)n3c(nc2c1)CCC3	-1.0%	1.4	-20	-4.7%	8	·	·
15	Cc1cc(-c2nc3ncccc3o2)ccc1NC(=O)COc1ccccc1C	-28%	-0.6	-5	3.6%	·	·	·
16	C[C@@H]1CN([C@@H](C)CO)C(=O)CCCn2nncc2CO[C@@H]1CN(C)S(=O)(=O)c1ccc(-c2ccccc2)cc1	-2.0%	1.0	16	1.7%	·	·	·
17	CCCCCC(=O)Nc1ccc(C(=O)COC(=O)Cn2cnc3c2c(=O)n(C)c(=O)n3C)cc1	-1.1%	2.2	-2	-0.5%	2	·	·
18	CC1=CC2=NC(=O)/C(=C\c3cccn3CCOc3ccccc3)C(=N)N2O1	0.5%	1.7	17	1.4%	-41	·	5%
19	c1ccc2c(c1)CNC1(CCCCC1)C2	-19%	-0.4	4	-1.8%	-22	2.5	6%
20	Cc1ccc(OCC(=O)Nc2nnc(S(=O)(=O)N3CCC(C)CC3)s2)cc1	·	-0.2	12	2.8%	?	14	12%
21	CCOC(=O)c1c(O)c2ccccc2n(-c2ccccc2)c1=O	-5.1%	1.7	-18	2.1%	-4	-1.6	0%
22	O=C(CC1Sc2ncnn2C1=O)Nc1ccccc1 (configuration not stated)	-1.0%	0.4	-2	-3.9%[38.3 µM]	11	-3.1	?
23	Cc1c(Cl)cccc1NC(=S)NNc1ncc(C(F)(F)F)cc1Cl	0.4%	1.4	-14	?	-4	2.1	20%
24	O=C(Nc1ccc2ccccc2c1)c1onc2c1CCCC2	-0.1%	-0.8	-4	1.1%	-7	0.4	-18%
25	CC1CCc2c(sc(NC(=O)CCCn3cnc([N+](=O)[O-])n3)c2C(N)=O)C1 (configuration not stated)	·	-0.7	-5	-0.8%	?	-0.6	4%
26	C/C(=N\N=C(/N)c1nonc1N)c1ccc2c(c1)OCO2	-0.9%	-1.0	2	2.0%	-3	4.2	-9%
27	COc1ccc(-c2cc(C(=O)N3CCN(c4ccccc4)CC3)no2)cc1	-1.7%&-3.3%	1.2&-0.6	11&15	6.1%&2.0%	-2	-1.8	-13%
28	CC(=O)c1c(C)[nH]c(C(=O)OCC(=O)Nc2cc(Cl)ccc2[N+](=O)[O-])c1C	2.2%	1.6	-3	3.0%	25	4.9	-4%
29	C/C=N\NC(=O)COc1cc(C)ccc1C	·	0.5	-13	5.4%	4	-1.0	18%
30	Cc1cc(C)n(C(=O)CN(C)S(=O)(=O)c2ccc([N+](=O)[O-])cc2)n1	-2.4%	2.4	-18	-2.4%	5	0.6	10%
31	COc1ccc(C(=O)Nc2ccc3c(c2)nc(CCNC(C)=O)n3C)cc1	-0.4%	0.4	-5	12%[38.3 µM]	-4	4.8	8%
32	C=CCn1c(SCC(=O)N(CCOC)c2c(N)n(CC(C)C)c(=O)[nH]c2=O)nc2ccccc21	0.4%	0.9	4	-1.2%	3	·	·
33	CC(C)NC(=O)c1ccccc1NC(=O)/C=C/c1ccc([N+](=O)[O-])cc1	-0.3%	0.6	-2	14%	-7	-1.7	12%
34	CCCNS(=O)(=O)c1cc(Cl)ccc1OC	·	-0.5	-9	-0.3%	7	1.6	6%
35	COc1ccc(CCN(C)C2CCCN(S(=O)(=O)N(C)C)C2)cc1OC (configuration not stated)	·	-0.9	3	0.0%	·	·	·
36	CCOC(=O)N1CCN(C(=O)CCCOc2ccccc2)CC1	0.8%	0.1	-1	-0.8%[38.3 µM]	7	2.0	-2%
37	COc1ccc(C(=O)c2c[nH]c(C(=O)NCCCN3CCOCC3)c2)cc1	-0.1%	-0.3	-5	-0.3%	-3	-0.4	-18%
38	OCc1nc2ccccc2n1CC(O)Cn1ccc2ccccc21 (configuration not stated)	0.9%	-0.4	-2	1.1%	7	4.0	-14%
39	CCN(CC)S(=O)(=O)c1ccc(Cl)c(C(=O)OC2CC(C)OC2=O)c1 (configuration not stated)	·	-0.2	0	-0.6%	-1	-0.7	14%
40	Nc1ccc(CSc2ccc(Cl)cc2)c(Cl)c1	·	1.3	84	14%	·	·	·
41	CCC(=O)N1CCN=C1SCc1ccc(F)cc1	0.3%	0.2	13	5.8%	-5	-1.1	0%
42	CN1CCN(C(=O)/C(=C/c2cn(S(=O)(=O)N(C)C)c3ccccc23)NC(=O)c2ccccc2Cl)CC1	-0.2%	-0.1	2	3.6%	29	·	-11%
43	CCOC(=O)N1CCN(S(=O)(=O)c2ccc(C(=O)Nc3nc4ccc(F)cc4s3)cc2)CC1	6.0%	-0.7	-18	6.6%	19	2.2	-6%
44	O=C(NCCc1ccc(Cl)cc1)C1CCN(S(=O)(=O)c2ccc(Br)s2)CC1	0.0%	1.4	33	4.2%	29	0.2	19%
45	O=C(c1ccccc1F)N(Cc1ccccc1)Cc1ccccc1	·	-0.4	-20	4.3%	-8	-0.4	10%
46	Cc1ccc(NC(=O)N2CCN(c3ccc(Cl)c(Cl)c3)CC2)cc1	2.0%	0.8	-4	0.4%	·	·	·
47	COc1cc(NC(=O)CCC(=O)c2cccs2)cc(OC)c1	-23%	-0.8	3	-0.6%	-14	·	0%
48	CC(=O)Nc1ccc(NC(=O)CN(c2cccc(C)c2)S(C)(=O)=O)cc1	0.5%	0.0	-4	10.0%[38.3 µM]	-4	5.4	24%
49	Cc1ccnc(NC(=O)C2CCN(S(=O)(=O)c3ccc(Cl)c(C(F)(F)F)c3)CC2)c1	32µM*	2.2	9	-0.6%	-2	·	·
50	CCOC(=O)c1cc(-c2ccc([N+](=O)[O-])cc2)nc2c1c(=O)[nH]c(=O)n2Cc1ccccc1	·	1.0	36	5.3%	3	3.5	4%
51	Cc1nn(C)cc1S(=O)(=O)N1CCN(Cc2cccc(Cl)c2)CC1	·	-1.3	2	0.8%	-10	-2.9	11%
52	CC(NC(=S)Nc1ccccc1Cl)C(c1cccs1)N1CCCC1 (configuration not stated)	·	1.0	-7	0.7%	-23	-1.6	1%
53	COc1ccc(NC(=O)c2ccccc2Cl)cc1NC(=O)CN1CCOCC1	-2.0%	-0.1	2	0.3%	5	0.1	9%
54	N#Cc1ccccc1Cn1c(=O)n(Cc2ccc(C(=O)NCc3ccco3)cc2)c(=O)c2sccc21	-4.1%	0.7	-4	0.2%	12	2.6	-9%
55	COC(=O)CNC(=O)Cn1nc(C)c([N+](=O)[O-])c1C	·	-0.5	-15	0.3%	9	-2.9	23%
56	CCOC1=C2CN(S(=O)(=O)c3ccc(C)cc3)[C@H](c3cccc(Cl)c3)C[C@H]2[C@H]2C(=O)N(c3ccccc3)C(=O)[C@H]2C1	1.5%	-0.1	14	5.0%	·	·	·
57	O=C(O)c1ccc(N=C2NC(=O)C(CO)(CO)S2)cc1	2.8%	0.4	7	0.0%	-10	-2.4	2%
58	Cc1nc(NS(=O)(=O)c2ccccc2)sc1C(=O)N/N=C/c1ccccc1	-1.0%	-0.9	-10	0.9%	2	0.8	5%
59	CCn1c(Cn2nnc(-c3ccccc3)n2)nnc1SCC(=O)Nc1cccc(C(C)=O)c1	1.7%	1.0	-11	2.3%[38.3 µM]	24	-2.0	10%
60	Cn1c(Cn2c(=O)sc3ccccc32)nnc1SCC(=O)Nc1ccc(F)cc1	0.5%	1.2	21	0.7%	-2	0.8	5%
61	COc1cccc(C2CC(c3c(Cl)cccc3Cl)n3nc(N)nc3N2)c1 (configuration not stated)	1.3%	0.0	7	-2.2%	2	0.9	17%
62	Cc1ccc(-c2cn3nc(C)c(C)nc3n2)cc1	0.8%	0.5	6	5.1%	·	1.0	0%
63	O=C(COc1ccc(S(=O)(=O)N2CCCCC2)cc1)N1CCCC1	·	-0.4	6	-0.1%	-17	-1.0	2%

Assay outcomes: PubChem, National Center for Advancing Translational Sciences (NCATS)
